Screening data (PubChem)
gsp antagonist: antagonizes gsp, the McCune-Albright syndrome mutation; gsp-mutant cells, cAMP HTRF, 30 min; control for the full effect not named in the record; Potency, µM (titrated, usually from 76.9 µM), without a hit: at the top dose activity change, negative = inhibition, actives largely listed as inhibitors; actives 0.4% (n = 340,000); active = falling curve of any shape with a large fitted effect; inconclusive = falling curve, mostly with a smaller effect; inactive = flat or rising curve; cell line not stated here;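 note: intracellular cAMP measured with PDE inhibitor Ro 20-1724 present during compound exposure; potency is the fitted concentration of half-maximal effect; % is set by controls: 0 for no effect and ±100 for the full control effect; nearly all actives have a fitted effect of over 65% in size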
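HTRF cAMP measurement after 30 min RT detection following 30 min, 37C compound treatment alongside […] (added as 300 uM solution) in G418-selected cells seeded at 2000/well and grown 16–24 h.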
CtBP-E1A inh: blocks the CtBP interaction with E1A | activity change, % (no concentration beside the values) | actives 0.49% (n = 340,000) | AlphaScreen GST-E1A/His-CtBP binding, 1536-well; active compounds read low; control for the full effect not named in the record; in the data active means activity change below about -65%; inconclusive means about -30% to -65%; inactive means above about -30%; note: % is set by controls: 0 for no effect and ±100 for the full control effect
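Steps: dispense buffer (Tris pH 8.0, NaCl 300 mM, TCEP 1 mM, BSA, Tween 20); add 5X protein mix (GST-E1A, His-CtBP, 125 nM each); pin 23 nL compound; 2 h at 37 °C, dark; add 5X beads (50 ug/mL); 1 h; read.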
D2 potentiator: potentiates the human D2 dopamine receptor allosterically; DiscoveRx D2 beta-arrestin cells, luminescence, 90 min; 100% = 57 uM dopamine signal; potentiation, % (no concentration beside the values); actives 0.23% (n = 360,000); AID 624464; active = potentiation of 50% or more; inconclusive = 30% to 50%; inactive = 30% or less;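 note: compound concentration not given in the record; tested on top of an EC20 dose of dopamine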
Target sequence (P14416 whole entry, looked up): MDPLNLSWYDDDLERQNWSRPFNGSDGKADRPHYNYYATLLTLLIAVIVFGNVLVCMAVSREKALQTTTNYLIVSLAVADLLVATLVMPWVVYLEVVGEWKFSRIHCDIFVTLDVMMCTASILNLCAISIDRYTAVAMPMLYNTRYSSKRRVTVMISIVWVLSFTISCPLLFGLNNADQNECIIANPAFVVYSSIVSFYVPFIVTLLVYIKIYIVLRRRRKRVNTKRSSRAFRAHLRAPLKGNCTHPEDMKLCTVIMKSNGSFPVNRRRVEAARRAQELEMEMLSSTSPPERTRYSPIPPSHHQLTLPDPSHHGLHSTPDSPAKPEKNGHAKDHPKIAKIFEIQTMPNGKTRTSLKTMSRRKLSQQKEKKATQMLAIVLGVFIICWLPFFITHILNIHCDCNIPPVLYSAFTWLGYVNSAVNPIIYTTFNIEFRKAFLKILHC
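PathHunter beta-arrestin assay in DiscoveRx D2 cells. Compounds were added with an EC20 of dopamine (50 nM final) for 90 min at 37 deg C. Luminescence was read 1 h after detection reagent, with 57 uM dopamine as the EC100 control.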
gsp ag: agonists of gsp mutant (McCune-Albright syndrome); gsp mutant cells, cAMP HTRF, 30 min; control for the full effect not named in the record; Potency, µM (doses to about 76.9 µM), inactives show at the highest dose activation (cAMP increase), actives largely listed as activators; actives 0.13% (n = 340,000); AID 624287; active = well fitted activation curve with a large enough effect; inconclusive = small, poorly fitted or top-dose-only effect, or another doubt; inactive = no such curve, though single readings can be large or run the other way; cell line not stated here;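 note: phosphodiesterase inhibitor Ro 20-1724 added with compounds to block cAMP breakdown; potency is the fitted concentration of half-maximal effect; nearly all actives have a fitted effect of over 60% in size; about a fifth of the inactives were tested at one dose only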
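Cells in DMEM/10% FBS with G418 were pretreated with compounds in DMSO plus […] (300 uM stock) for 30 min at 37C. cAMP was measured by HTRF (cAMP-d2 plus anti-cAMP antibody-K) after 30 min at room temperature.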
Six1-Eya2 inh: inhibitors of human Six1/Eya2 interaction; Q15475+O00167; AlphaScreen GST-Six1/His-Eya2 binding, biochemical; active compounds read low; control for the full effect not named in the record; actives 0.56% (n = 360,000); activity change, % (concentration not given with the values); AID 651725; in the data active = activity change below about -65%; inconclusive = about -30% to -65%; inactive = above about -30%; note: % is set by controls: 0 for no effect and ±100 for the full control effect
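Compounds are tested against tagged Six1 and Eya2 proteins bridged by glutathione donor and nickel acceptor beads; after a one-hour incubation at 37 °C without light, AlphaScreen emission is recorded.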
D2 agonist: activates the human D2 dopamine receptor; activation, % (test concentration not listed); DiscoveRx PathHunter D2 beta-arrestin, luminescence, 90 min; 100% = 57 uM dopamine signal; actives 0.084% (n = 360,000); in the data active = activation above about 40%; inconclusive = about 15% to 40%; inactive = below about 15%; note: compound concentration not given in the record; the text of the record calls up to 30% inactive
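Agonist mode: compounds alone added to overnight-plated D2 PathHunter cells for 90 min at 37 C, with 57 uM final dopamine (EC100) defining full response. Beta-arrestin recruitment detected by chemiluminescent reagent, read after 1 h at ambient temperature.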
Active calls of the source: *; ? = inconclusive; . = not tested or not shown; & = joins results of further samples; [ ] = dose if it differs, or a comment.

structure | gsp ag | CtBP-E1A inh | D2 agonist | D2 potentiator | Six1-Eya2 inh | gsp antagonist
O=C(Nc1nc2ccc(Oc3ccccc3)cc2s1)c1cc([N+](=O)[O-])ccc1N1CCOCC1 | -14% | -28 | -8.3 | -25 | ? | -2%
C=CCN(Cc1cccs1)C(=O)CN1CCN(S(=O)(=O)c2ccc3c(c2)OCCCO3)CC1 | -10% | . | 4.4 | -2 | 14 | -33%
COc1ccc(-c2noc(CCC(=O)NCCCN3CCN(c4ccccc4F)CC3)n2)cc1 | -99%[inhibitor] | 1 | -0.7 | -5 | 3 | -11%
O=C(NC(=S)Nc1ccc(N2CCOCC2)cc1)c1ccc(Cl)cc1 | -3% | 4 | -3.0 | -9 | 0 | -6%
CNC(=S)N1CCN(c2ccccn2)CC1 | 28%[15.4 µM] | 6 | 0.6 | -4 | 16 | -10%
CC(C)(C)NC(=O)c1cc(C(C)(C)C)c(O)c(C(C)(C)C)c1 | ? | 0 | -2.0 | -5 | 11 | 2%
CC(=O)C1=CCC(c2ccc(F)cc2)N(S(=O)(=O)c2ccc(C)cc2)C1 (stereo not drawn) | . | 0&4 | -6.9&-6.9 | -2&-7 | 4&3 | .
O=C(NCCCN1CCOCC1)c1onc(CSc2ccc(F)c(F)c2)c1C(=O)NCCCN1CCOCC1 | -39% | 3 | -2.0 | -16 | -1 | -1%
CCOC(=O)COc1cccc2c(=O)n(CC(=O)N3CCCc4ccccc43)ccc12 | 7% | 5 | -2.2 | 0 | -6 | -10%
Cc1nc2cc3c(cc2c(C)c1C(=O)OC(C)C)OCO3 | 8% | 0 | -0.7 | -6 | 0 | -7%
CCOC(=O)CNC(=O)Nc1ccccc1C(=O)OC | 4% | 3 | -2.9 | -13 | 0 | -5%
CC(C)(C)c1ccc(CC(=O)N2CCC2(C)C(=O)NS(=O)(=O)c2ccc(Cl)s2)cc1 (stereo not drawn) | . | 3 | 4.0 | 6 | 36 | .
Cc1ccc(CS(=O)(=O)Cc2ccc(C(=O)NC3CC3)o2)cc1 | 2% | . | 3.3 | -7 | -5 | 4%
CC(NC(=O)c1cccs1)c1ccc(Br)cc1 (stereo not drawn) | -4%[15.4 µM] | 3 | -0.1 | -8 | -3 | -11%
CCN(C(=O)COC(=O)c1cnccn1)c1cccc2ccccc12 | 1% | 4 | 0.9 | -5 | -1 | -2%
O=C(NCc1ccc(Cl)cc1)N1CCN(C(=O)c2ccccc2)CC1 | -10% | 0 | -3.9 | -3 | -5 | .
O=C(Nc1ccc(CN2CCCCC2)cc1)c1cccc(Br)c1 | 0%[15.4 µM] | -5 | -3.9 | -18 | -1 | -5%
Cc1ccc(CN2C(=O)CCC2C(=O)NC(C)C)cc1 (stereo not drawn) | -4% | 1 | -0.7 | 7 | 10 | -1%
O=C(Cn1cncc1-c1ccc([N+](=O)[O-])cc1)Nc1ccccc1F | 27%[15.4 µM] | 5 | -0.3 | -13 | 6 | -5%
COCCCNc1nc2nonc2nc1N1CCN2CCCC2C1 (stereo not drawn) | 8% | . | -1.8 | -10 | 2 | -5%

(further entries)
structure | gsp ag | CtBP-E1A inh | D2 agonist | D2 potentiator | Six1-Eya2 inh | gsp antagonist
Cc1c(OCC(=O)N2CCC[C@@H]2C(=O)O)ccc2c3c(c(=O)oc12)CCC3 | . | -17 | -2.6 | -11 | -7 | 6%
COC(=O)Nc1sc2c(c1C(=O)NCc1ccco1)CCC2 | -29% | -3 | -3.7 | -10 | -3 | 2%
CN(CC(=O)Nc1ccc(S(=O)(=O)N2CCCC2)cc1)Cc1cccc(Cl)c1Cl | 0% | 5 | 0.4 | 4 | -7 | -14%
CCCSc1ccc(C(=O)Nc2ccc(Cl)cc2)cn1 | -77%[inhibitor] | -5 | 7.7 | -13 | 6 | -1%
O=C(CN(C(=O)CCC(=O)Nc1ccccn1)c1ccc(F)cc1)NCc1ccco1 | 1% | -2 | -2.5 | -6 | -6 | 2%
OCC(O)C1OCOC(C(O)CO)C1O (stereo not drawn) | -3% | 1 | 1.3 | 9 | 6 | -2%
CC(=O)Nc1ccc(S(=O)(=O)NCc2csc(-c3cccnc3)n2)cc1 | 16% | -3 | -10 | -14 | 14 | -8%
Cc1ccc(/C=N/N2CCN(c3ccc(Cl)cc3)CC2)o1 | -4% | 0 | 2.9 | -9 | -9 | 11%
N#Cc1cc(-c2ccc(Cl)cc2)cnc1Sc1ccc(F)cc1 | 0% | 6 | -1.4 | -7 | 7 | 4%
CCCCOC(=O)Oc1ccc2c(=O)c(Oc3cc(C)cc(C)c3)coc2c1 | -1% | -3 | -1.8 | 2 | 3 | -3%
CN1CCN(Cc2nc3ccccc3c(=O)n2CC#N)CC1 | -25% | . | -3.7 | -9 | 0 | 29%
O=C(Nc1ccc(F)cc1)N(Cc1ccco1)Cc1cc2cc3c(cc2[nH]c1=O)OCO3 | 29% | -9 | -5.1 | -1 | -7 | 10%
CCC(c1nnnn1C(C)(C)C)N(Cc1ccco1)Cc1cc2cccc(C)c2[nH]c1=O (stereo not drawn) | 0% | -1 | 0.8 | -4 | 4 | ?
COP(=O)(c1ccc(N(C)C)cc1)C(O)c1ccccc1 (stereo not drawn) | -12%[15.4 µM] | -1 | -2.3 | -10 | 4 | 14%
O=C(NCCc1c[nH]c2ccccc12)c1ccc(Br)o1 | -2% | 2 | -0.4 | -15 | -10 | 3%
Cc1cc(C)n(-c2ccc(OCC(=O)O)nn2)n1 | ? | 9 | -3.2 | -7 | 3 | 5%
COc1ccccc1N1CCN(c2ncnc3nc[nH]c23)CC1 | 22% | -2 | -7.1 | -4 | 3 | 5%
COc1ccc(NC(=O)CN2CC(c3ccccc3)CC2=O)cc1OC (stereo not drawn) | -20% | 1 | -0.1 | -1 | 2 | 0%
O=C(CN1C(=O)CCOc2ccccc21)Nc1cccc(S(=O)(=O)N2CCOCC2)c1 | -23% | -4 | -0.8 | 7 | -4 | -7%
COC(=O)c1ccc2c(=O)n(Cc3ccc(C(=O)NC(C)C)cc3)c(=S)[nH]c2c1 | 1%[15.4 µM] | -9 | -7.0 | 1 | 2 | -30%

(listing goes on)
structure | gsp ag | CtBP-E1A inh | D2 agonist | D2 potentiator | Six1-Eya2 inh | gsp antagonist
COc1cc([N+](=O)[O-])cc2sc(NC(=O)C3CC3)nc12 | 29% | . | 0.2 | -42 | 0 | -9%
N#Cc1c(-c2ccccc2)c(-c2ccccc2)n(Cc2ccco2)c1NC(=O)c1cccs1 | 2% | -16 | 1.1 | 2 | -10 | -18%
[S-]C(=Nc1ccc(Cl)cc1)N[n+]1ccccc1 | 12% | 2 | -8.1 | -5 | 3 | 5%
O=C(NNC(=O)c1cc(-c2ccccc2)nn1-c1ccccc1)c1ccccc1 | 3% | -11 | -2.3 | -12 | -13 | -13%
COc1ccc(-c2ccc(CCC(=O)O)n2NC(=O)c2ccc(C(C)(C)C)cc2)cc1 | -2%[15.4 µM] | -5 | -3.2 | -8 | -11 | -17%
Nn1c(-c2cccc(O)c2)nnc1-c1cccc(O)c1 | -1% | -3 | 3.6 | 5 | 2 | 3%
c1ccc(-c2ccc(C3=Nn4c(nnc4-c4cc(-c5ccccc5)n[nH]4)SC3)cc2)cc1 | -57% | -5 | -3.7 | -13 | -14 | -3%
CC(C)C(=O)NC(=S)Nc1sc2c(c1C(N)=O)CCCC2 | -23% | -4 | -6.0 | -19 | -6 | 6%
O=c1c(C=Nc2ccc(Cl)cc2)c[nH]n1-c1cccc(Cl)n1 | -31% | -7 | -2.3 | 3 | 0 | 2%
Cc1ccc(NC(=O)C2CCN(C(=O)c3cccs3)CC2)c(C)c1 | -4%[15.4 µM] | -10 | -2.8 | -13 | 17 | -15%
COC(=O)c1cc(=O)n(Cc2cccs2)c(=NCc2cccs2)s1 | -9% | 11 | -0.5 | -6 | 6 | -2%
FC(F)(F)c1ccc(-c2nnc(-c3ccccn3)c(-c3ccccn3)n2)nc1 | 4%[15.4 µM] | -2 | -2.6 | -2 | -12 | 3%
CC[C@@H]1C=C(C(=O)O)[C@H](c2ccc(OC)c(OC)c2)N1S(=O)(=O)c1ccc(C)cc1 | . | -5 | -2.2 | -4 | 3 | -3%
O=C(Cc1cccs1)Nc1nnc(SCc2cccc3ccccc23)s1 | 18% | 0 | -0.1 | -15 | 12 | 1%
COc1ccc(S(=O)(=O)Nc2ccc(Cc3ccncc3)cc2)cc1OC | 16%[15.4 µM] | -10 | -2.5 | 24 | 4 | -20%
O=Cc1cn(-c2ccccc2)nc1-c1cccnc1 | 6%[15.4 µM] | -3 | 2.9 | -3 | 19 | 5%
CCCSc1nc(C)cc(C)c1C(N)=O | 3% | 3 | -1.3 | 1 | 6 | 15%
COc1ccc(Cn2c(=O)sc3ccccc32)cc1 | -42%[inhibitor] | 15 | -2.2 | -8 | 23 | -26%
CC(=O)Nc1cccc(-c2csc(C(C)(O)c3cccc(F)c3)n2)c1 (stereo not drawn) | . | -5 | 8.9 | -11 | -1 | .
Cc1c(Cc2ccccc2)sc(/N=C/c2c(O)ccc3ccccc23)c1C(N)=O | 9% | 1 | -1.9 | 57* | -4 | -3%

By substructure: the entries above with a nitro group on carbon.
structure | gsp ag | CtBP-E1A inh | D2 agonist | D2 potentiator | Six1-Eya2 inh | gsp antagonist
O=C(Nc1nc2ccc(Oc3ccccc3)cc2s1)c1cc([N+](=O)[O-])ccc1N1CCOCC1 | -14% | -28 | -8.3 | -25 | ? | -2%
O=C(Cn1cncc1-c1ccc([N+](=O)[O-])cc1)Nc1ccccc1F | 27%[15.4 µM] | 5 | -0.3 | -13 | 6 | -5%
COc1cc([N+](=O)[O-])cc2sc(NC(=O)C3CC3)nc12 | 29% | . | 0.2 | -42 | 0 | -9%

New compounds follow.
structure | gsp ag | CtBP-E1A inh | D2 agonist | D2 potentiator | Six1-Eya2 inh | gsp antagonist
CC(c1ccccc1)n1cc(C(=O)NCC2COc3ccccc3O2)nn1 (stereo not drawn) | 8% | -6 | -0.9 | -1 | -1 | 8%
COC(=O)c1cc(=O)n(-c2ccc(F)cc2)c(=Nc2ccc(F)cc2)s1 | -39%[inhibitor] | -9 | -6.3 | 0 | 2 | -2%
CCOC(=O)Cn1c2ccc(F)cc2c2nc(C)sc21 | -28% | -4 | -3.0 | -6 | 0 | -8%
COc1cccc(CN(C)C(=O)c2ccc(OCC(=O)N3CCOCC3)c(OC)c2)c1 | -19% | 10 | 2.2 | -1 | 5 | ?
COC(=O)c1c(N)sc(Cc2ccccc2)c1C | -12% | -4 | -4.9 | -10 | -7 | 12%
Clc1cccc(NCc2nnc(SCc3ccccc3)o2)c1 | -4% | 14 | -0.6 | 5 | 9 | -3%
CCCCOc1ccccc1NC(=O)c1ccco1 | 14% | 11 | -0.1 | -17 | 17 | 1%
N#CC1(Cc2ccc(Cl)cc2)c2ccccc2C=CN1C(=O)c1ccccc1 (stereo not drawn) | -36%[inhibitor] | 2 | -2.3 | 2 | -7 | -4%
COc1ccc(CN2CCN(CC(O)Cn3c4ccccc4c4ccccc43)CC2)cc1 (stereo not drawn) | -57%[inhibitor] | -11 | 5.0 | -2 | -28 | 16%
